Autofluor counter = flagged as autofluorescent in microsphere protease counterscreen; compound autofluorescence counterscreen, microsphere flow cytometry; hits give high values; fluorescence intensity (test concentration not listed); 3.1% of 360,000 active; AID 624483;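 active = at least 3 SD above the mean of all compounds, about 16000 in these data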;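 also: 100 nL of 1 mM stock went into each well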
An asterisk follows results filed as active.

SMILES | Autofluor counter
CC(C)(C)S(=O)N1Cc2cc(C(=O)N3CCOCC3)nc(-c3cccc(Br)c3)c2[C@@H]1CCO (stereo partly specified) | 5865
Cc1ccc(S(=O)(=O)N(C)C[C@@H]2Oc3ncc(C#CCC(C)C)cc3C(=O)N([C@H](C)CO)C[C@H]2C)cc1 | 3907
CCCCN(CCCC)Cc1cc(=O)oc2ccc3ccccc3c12 | 5630
COc1ccc(CNC(=O)C[C@@H]2C[C@H]3c4cc(NC(=O)NC5CCCC5)ccc4O[C@H]3[C@H](CO)O2)cc1 | 3619
C[C@@H]1CN([C@@H](C)CO)C(=O)CCCn2nncc2CO[C@@H]1CN(C)C(=O)Nc1cccc2ccccc12 | 3785
CCN(CC)C(=O)C1=C(C)N(Cc2ccc(OC)cc2)C(=O)C(CC(=O)NCCCN(C)C)C1 (stereo unspecified) | 3854
CC(c1ccc2ccccc2c1)c1ccccc1C(=O)O (stereo unspecified) | 4009
COc1cc2nc(CN3CCN(S(=O)(=O)c4ccccc4[N+](=O)[O-])CC3)[nH]c(=O)c2cc1OC | 3328
CC(=O)Nc1ccc(CNc2nc(NC(C)C)nc3ccsc23)cc1 | 3857
Cc1cc(F)ccc1-c1cc(C(=O)NCC2CCCCC2)[nH]n1 | 3874
CC(=O)c1ccc(Nc2nc(C(N)Cc3ccc(Cl)cc3)cs2)cc1 (stereo unspecified) | 3813
CCCCc1c(Cc2ccccc2)ncn1CCc1ccccc1OC | 5078
Cc1cc2nc(-c3cccc(Cl)c3)c(Cc3ccccc3)n2c(C)c1Br | 6508
O=C1NC(Cc2ccccc2)c2nc3ccc(F)cc3c(=O)n2-c2ncccc21 (stereo unspecified) | 3119
CCOC(=O)CN(C(=O)c1snc(C(N)=O)c1N)C(C(=O)NCCC(C)C)c1ccc(C)cc1 (stereo unspecified) | 3572
CC(C)Oc1ccc(F)cc1-c1cc(C(=O)NCc2ccc(F)cc2)[nH]n1 | 3559
CC1=C(C(=O)N2CCCCCC2)CC(CC(=O)NC2CCCC2)C(=O)N1Cc1ccc(F)cc1 (stereo unspecified) | 5275
CSc1nc(SCc2ccccc2)[nH]c(=O)n1 | 2876
CC(C)(C)OC(=O)N1CC2(CCCCC2)CC1Cc1ccc(C(F)(F)F)cc1 (stereo unspecified) | 3405
COc1ccc(-c2ccc3[nH]c4c(c3c2)CCN2C(=O)[C@@H]([C@H](C)O)[C@@H](N(C)C(=O)Nc3cc(Cl)cc(Cl)c3)C[C@@H]42)cc1 | 3533
Brc1ccc2nc(-c3ccco3)c(Cc3ccccc3)n2c1 | 6438
CCCc1c(C(=O)N/N=C(\C)c2ccccn2)nnn1-c1nonc1N | 3873
CC(C)c1cc(C(=O)N(C)C2CCCN(Cc3ccccc3F)C2)n(C)n1 (stereo unspecified) | 3943
Clc1ccc(-c2nc3ccc(Br)cn3c2Cc2cccc(Cl)c2)cc1 | 7329
O=C(NCCc1c[nH]c2ccccc12)c1ccc([N+](=O)[O-])o1 | 3540
Next entries
SMILES | Autofluor counter
CC(C)C1C(=O)N(Cc2cn(CCC3OCCO3)nn2)CCS(=O)(=O)N1Cc1ccc(-c2ccccc2)cc1 (stereo unspecified) | 3833
COc1ccc(NC(=O)N(C)[C@H]2C[C@H]3c4[nH]c5ccc(-c6ccc7c(c6)OCO7)cc5c4CCN3C[C@H]2[C@H](C)O)cc1 | 3857
CC(NS(=O)(=O)c1ccc(Br)cc1F)[C@H](O)c1ccccc1 (stereo partly specified) | 3740
CNc1cncc(-c2ccc(O)cc2C)n1 | 4032
NC(Cc1ccc(C(F)(F)F)cc1)c1csc(Nc2cc(Oc3ccccc3)ncn2)n1 (stereo unspecified) | 3202
Cc1ccc(C)c(CC(=O)N2CCCC(c3cc(C(=O)Nc4ccccc4Cl)no3)C2)c1 (stereo unspecified) | 3888
CC(=O)N1C[C@@H](CO)[C@@H](N(C)C(=O)C(C)(C)C)C[C@H]1c1ccccc1 | 5418
CC(C)c1ccc(CC(=O)N2CCC2(C)C(=O)NCC(C)(C)C)cc1 (stereo unspecified) | 2847
CCCCN1C(=O)C(CC(=O)NCc2cccc3ccccc23)CC(C(=O)N2CCCCCC2)=C1C (stereo unspecified) | 4371
CC1(C)CN(Cc2ccccc2)C(=O)[C@H]1CC(=O)Nc1ccccc1 | 3001
COc1ccc(C(=O)N2CCCC(C)(C(=O)NS(=O)(=O)C3CC3)C2)c(OC)c1 (stereo unspecified) | 3733
CCc1nc2ccc(C(=O)NCCOc3ccc(OC)cc3)cn2c1N(CC)CCN(C)C | 3665
C[C@@H]1CN([C@@H](C)CO)C(=O)CCCn2cc(nn2)CO[C@H]1CN(C)S(=O)(=O)c1ccc2ccccc2c1 | 3704
CN(CCO)c1cccc2c1S(=O)(=O)N[C@H](Cc1ccccc1)CO2 | 5352
Cc1ccc(Cc2c(-c3ccc(C#N)cc3)nc3ccc(Cl)cn23)cc1 | 8885
Clc1cccc(CNc2ccn3nc(-c4ccco4)cc3n2)c1 | 2908
CCc1nc2ccc(C(=O)NCCCn3ccnc3)cn2c1N(C)Cc1cc2ccccc2s1 | 4012
O=C(Nc1ccc(F)c(Cl)c1)c1cc(C2CCCN(S(=O)(=O)c3cccc4cccnc34)C2)on1 (stereo unspecified) | 3392
CN(Cc1ccc(F)cc1)S(=O)(=O)c1ccc2[nH]c(=O)[nH]c2c1 | 2933
Cc1ccc(S(=O)(=O)NC(=O)C2(C)CCN2C(=O)c2ccc(C(F)(F)F)nc2C)cc1 (stereo unspecified) | 3793
Cc1ccc([C@H]2C[C@@H](n3cc(-c4ccc(F)cc4)nn3)[C@H](O)CN2C(=O)C2CCCCC2)cc1 | 3774
CC(=O)NC(c1ccccc1)c1nc(-c2cccnc2)cs1 (stereo unspecified) | 3295
CCOC(=O)C1(C)CCN1C(=O)c1ccc(OC)cc1 (stereo unspecified) | 3656
Cc1ccc2cc(NC(=O)C3(C)CCN3CC(C)C)ccc2n1 (stereo unspecified) | 3983
CCCCCCN1C[C@H](O)[C@@H](n2cc(COC(=O)c3ccccc3)nn2)C[C@@H]1c1ccc(Cl)cc1 | 3076
Continued:
SMILES | Autofluor counter
CC(C)(C)c1cc(NC(=O)C2(C)CCN2C(=O)c2ccccc2CCc2ccccc2)no1 (stereo unspecified) | 3460
CC(C)C[C@H]1CN(CCCC[C@@H]2CNC(=O)C(=O)N2CC2CCCCC2)C(=O)C(=O)N1CCC1CCCCC1 | 5490
Cc1ccc(C(=O)NCC(=O)N(C)Cc2ccccc2C)s1 | 2819
O=C(Nc1ccccc1)c1cc(C2CCCCN2C(=O)c2ccccc2)on1 (stereo unspecified) | 3348
CC(=O)N1CCN(Cc2cc(=O)oc3cc(C)c(C)cc23)CC1 | 6988
OC(COc1ccc(-c2ccccc2)cc1)CN1CCCCC1 (stereo unspecified) | 3527
O=C1Nc2c(Cl)cccc2C1=O | 6315
COc1cc(NC(=O)CSc2nnc3ccccn23)cc(OC)c1OC | 3345
CCNC(=O)C1CCCN(C(=O)c2cccs2)CC1 (stereo unspecified) | 3665
COc1ccc(OC)c(CNC(=O)c2[nH]c(C(F)(F)F)nc2-c2ccccc2)c1 | 4510
COCCNc1nc(NCCCN2CCCC2=O)c2sccc2n1 | 3912
Cc1ccc([C@H]2C[C@@H](n3cc(COC(=O)c4ccccc4)nn3)[C@H](O)CN2Cc2cccs2)cc1 | 3851
CC1(c2nc3ccccc3cc2C#N)OCCO1 | 3419
Cc1ccc(N2CCN(C(=O)c3[nH]c(C(F)(F)F)nc3-c3ccccc3)CC2)cc1 | 5929
CSc1ccc(OC2(C)CCN(Cc3cc4ccccc4o3)C2)cc1 (stereo unspecified) | 3723
Cc1cc(NCC(=O)Nc2ccc(C)c(S(=O)(=O)N3CCOCC3)c2)ccc1Br | 4823
COc1ccccc1CNC(=O)C(=O)c1cn(CC(=O)N2CCCCC2)c2ccccc12 | 3688
CCNC(=O)C1CCCN(C(=O)c2ccc(C(F)(F)F)cc2)CC1 (stereo unspecified) | 3831
O=C(NCCOc1ccccc1)c1ccccc1F | 2994
COc1ccccc1NC(=O)c1ccccc1SCC(=O)N1CCCC1 | 3499
O=S1(=O)CC(N2CCSCC2)CN1Cc1cn(Cc2ccc(Cl)cc2)nn1 (stereo unspecified) | 4894
COc1ccc(C(=O)N2CCCCC2c2cc(C(=O)Nc3cccc(C#N)c3)no2)cc1 (stereo unspecified) | 3886
CS(=O)(=O)N1Cc2cc(C(=O)NCC3CCCCC3)nc(-c3cccc(-c4cccnc4)c3)c2[C@H]1CCO | 5711
COc1ccc(-c2ccc3c(c2)CN(C(=O)C(C)(C)C)Cc2cnnn2-3)cc1 | 4468
CSC[C@H]1CN(c2ccc(Br)cc2)C(=O)[C@@H]1CC(=O)Nc1ccc(Br)cc1 | 4194
Next part:
SMILES | Autofluor counter
CCCNC(=O)C1(C)CCCN(CCOc2ccccc2)C1 (stereo unspecified) | 3455
CSc1ncccc1C(=O)N1CCC(C)(C(=O)O)C1 (stereo unspecified) | 3524
CCOc1ccc(NC(=O)COC(=O)C2COc3ccccc3O2)cc1 (stereo unspecified) | 3833
CC(C)C[C@@H](CN1CCC[C@@H]1CN1C(=O)C(=O)NC[C@@H]1Cc1ccc(O)cc1)N1C[C@H](Cc2ccc(O)cc2)N(CC2CCCCCC2)C(=O)C1=O | 4158
Cc1cc(F)ccc1-c1cc(C(=O)NC(C)C)[nH]n1 | 3095
COc1ccc(C(=O)N/C(=C\c2ccc(Cl)cc2)C(=O)NCc2ccncc2)cc1 | 3631
CNc1cc(-c2cccc(OC)c2F)nc2ccnn12 | 3856
COc1cc(OC)cc(-c2c(Sc3ccccc3)c3cc(-c4cnc(OC)nc4)ccc3n2C)c1 | 5899
CC(C)(C)OC(=O)N1CCC[C@H]1C(=O)N1CCC[C@H]1C(=O)NCc1ccncc1 | 5890
Cc1c(C(=O)NCc2ccc(Cl)c(Cl)c2)sc(=O)n1Cc1ccc(S(C)(=O)=O)cc1 | 6071
O=C(NCc1ccccc1)c1cc(C2CCCCN2C(=O)c2cccs2)on1 (stereo unspecified) | 3783
CC(Sc1ccc(S(=O)(=O)N2CCN(C)CC2)cn1)C(=O)NC1CCCC(C)C1C (stereo unspecified) | 3912
Cc1ccc(C(NC(=O)C2CCN(Cc3ccc(Oc4ccccc4)cc3)CC2)c2ccccn2)cc1 (stereo unspecified) | 3528
Cn1ccc2c(-c3ccc(CO)cc3)cc3c(c21)C1CCC3C1 (stereo unspecified) | 5459
CCOC(=O)C1CCCN(C(=O)c2ccc(OC)cc2)CC1 (stereo unspecified) | 3909
C=CCOc1ccc(C[C@H](N)C(=O)NC[C@H]2O[C@@H](n3cc(C)c(=O)[nH]c3=O)C[C@@H]2O)cc1 | 2987
CC1(C(=O)NS(=O)(=O)c2cccc(Cl)c2)CCN1C(=O)Cc1cccs1 (stereo unspecified) | 3947
OC(c1ccc(-c2ccccc2)cc1)c1ncc(-c2ccccc2)[nH]1 (stereo unspecified) | 3857
Nc1ncnc2c1ccn2[C@H]1CN(Cc2ccc3c(c2)OCO3)C[C@@H](COC(=O)c2ccccc2)O1 | 4016
Cn1ncc2c(=S)[nH]c(=S)[nH]c21 | 5903
COCCNC(=O)C1CCCN(Cc2cccc(Cl)c2)CC1 (stereo unspecified) | 2907
CCCCNC(=O)C1c2ccccc2OCC(=O)N1CCc1ccccc1 (stereo unspecified) | 4154
COc1ccc(Cc2c(-c3ccco3)nc3c(C)cc(Br)cn23)c(C)c1 | 5801
CCOC(=O)C1CCCN(C(=O)c2ccc(C)c(F)c2)CC1 (stereo unspecified) | 3729
CCCCNC(=O)c1c(N)[nH]c(C(=O)c2ccccc2)c1-c1ccc(Cl)cc1 | 6456
The list goes on:
SMILES | Autofluor counter
Cc1ccc(Cc2c(-c3cccc(Br)c3)nc3c(C)cc(Br)cn23)cc1 | 4290
C[C@@H]1CN([C@@H](C)CO)C(=O)c2cc(Br)cnc2O[C@H]1CN(C)C(=O)Nc1ccc(F)cc1 | 3012
CC(C)c1ccc(CC(=O)N2CCC2(C)C(=O)Nc2cccc(C#N)c2)cc1 (stereo unspecified) | 3719
CCOC(=O)[C@]12CCCC=C1N(Cc1ccc(Cl)cc1Cl)C(=O)[C@H](CC(=O)NCCC(C)C)C2 | 4245
N#Cc1ccc(C(=O)N2CCC3CC2c2cc(N4CCCCC4)ccc23)cc1 (stereo unspecified) | 4426
COc1cc(C)c(CN2CCN(C(=O)CCC(=O)c3ccc(C)s3)CC2)cc1OC | 4402
COc1ccc(-c2csc(C(NC(C)=O)c3ccc(F)c(F)c3)n2)cn1 (stereo unspecified) | 2971
CCCCOC1NC(=O)NC(=O)C1(F)C(=O)OCC (stereo unspecified) | 5991
OC1CCC(Nc2ccn3nc(-c4cccc(Cl)c4)cc3n2)CC1 (stereo unspecified) | 3907

By substructure: the compounds so far with two or more sulfur atoms (six)
SMILES | Autofluor counter
CSc1nc(SCc2ccccc2)[nH]c(=O)n1 | 2876
O=S1(=O)CC(N2CCSCC2)CN1Cc1cn(Cc2ccc(Cl)cc2)nn1 (stereo unspecified) | 4894
Cc1c(C(=O)NCc2ccc(Cl)c(Cl)c2)sc(=O)n1Cc1ccc(S(C)(=O)=O)cc1 | 6071
CC(Sc1ccc(S(=O)(=O)N2CCN(C)CC2)cn1)C(=O)NC1CCCC(C)C1C (stereo unspecified) | 3912
CC1(C(=O)NS(=O)(=O)c2cccc(Cl)c2)CCN1C(=O)Cc1cccs1 (stereo unspecified) | 3947
Cn1ncc2c(=S)[nH]c(=S)[nH]c21 | 5903

Reformatted as labelled records: entries from further up.
mol: CC(=O)NC(c1ccccc1)c1nc(-c2cccnc2)cs1 (stereo unspecified)
- Autofluor counter: 3295
mol: CCOC(=O)C1(C)CCN1C(=O)c1ccc(OC)cc1 (stereo unspecified)
- Autofluor counter: 3656
mol: Cc1ccc2cc(NC(=O)C3(C)CCN3CC(C)C)ccc2n1 (stereo unspecified)
- Autofluor counter: 3983
mol: CCCCCCN1C[C@H](O)[C@@H](n2cc(COC(=O)c3ccccc3)nn2)C[C@@H]1c1ccc(Cl)cc1
- Autofluor counter: 3076

From PubChem

An excerpt; rates above refer to the full screens.
